From PubChem BioAssay
Yeast UUG start – modulators of yeast start codon fidelity, primary screen, whole organism, S. cerevisiae, single point, plate reader | S. cerevisiae UUG-firefly luciferase reporter, luminescence/redox ratio | activity score, % at 18.7 µM | 350,000 compounds, 0.13% hits;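 active = replicate mean at a twofold rise or more, about +100% in these data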;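 note: firefly luciferase made from a UUG start codon reports start codon fidelity; reporter light over untreated wells divided by growth signal over untreated wells; some hits fall short of that in this replicate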
* = called active by the depositor. Only part of the results is shown, so the mix of outcomes need not match the whole.

nr	Yeast UUG start	structure
1	-4	COc1ccccc1-c1ccc([C@H]2[C@H]3CN(C(=O)NC4CCCC4)CCCCN3[C@H]2CO)cc1
2	8	CC(C)NC(=O)N1CC[C@@H]2[C@@H](CO)N(C)c3ccc(Br)cc3[C@@H]21
3	3	COCC(=O)N1[C@@H]2CN(C(=O)c3ccccc3F)c3ccccc3[C@@H]2[C@@H]1CO
4	15	CC(=O)N(C)C[C@@H]1[C@@H](c2ccc(C3=CCCCC3)cc2)[C@@H](CO)N1CC1CC1
5	-9	CO[C@H]1CN(C)C(=O)c2ccc(NC(=O)Nc3c(C)noc3C)cc2OC[C@H](C)N(CCC(F)(F)F)C[C@H]1C
6	-5	CCS(=O)(=O)N1CCCCN2[C@H](CO)[C@H](c3ccc(C#CC(C)(C)O)cc3)[C@H]2C1
7	1	CO[C@H]1CN(C)C(=O)c2ccc(NC(=O)C3CCCC3)cc2OC[C@@H](C)NC[C@H]1C
8	1	Cc1noc(C)c1NC(=O)N(C)C[C@H]1Oc2c(NC(=O)c3ccc(-c4nccs4)cc3)cccc2C(=O)N([C@H](C)CO)C[C@@H]1C
9	-3	C[C@H](CO)N1C[C@H](C)[C@@H](CN(C)S(=O)(=O)c2ccccc2)Oc2ccc(NC(=O)NC3CCCCC3)cc2CC1=O
10	-2	C[C@@H]1CN([C@@H](C)CO)C(=O)c2cccc(NC(=O)C3CCCCC3)c2O[C@H]1CN(C)S(=O)(=O)c1ccc(F)cc1
11	-4	COCC(=O)Nc1ccc2c(c1)OC[C@@H](C)N(C(=O)c1ccccc1)C[C@H](C)[C@@H](OC)CN(C)C2=O
12	1	CN(C)C(=O)c1ccc(-c2ccc([C@@H]3[C@@H](CO)N4CCCCN(C(=O)C5CCC5)C[C@H]34)cc2)cc1
13	12	C[C@@H]1CN([C@H](C)CO)C(=O)Cc2cc(NC(=O)CCN3CCOCC3)ccc2O[C@@H]1CN(C)C
14	-1	COc1ccc(C#Cc2ccc3c(c2)[C@@H]2[C@@H](CCN2C(=O)C2CCCCC2)[C@H](CO)N3)cc1
15	8	CN(C)C(=O)c1cccc(-c2ccc3c(c2)[C@@H]2[C@@H](CCN2C(=O)c2cccc(F)c2)[C@H](CO)N3C)c1

Going on with the list:
nr	Yeast UUG start	structure
16	-25	Cc1noc(C)c1NC(=O)Nc1ccc2c(c1)C(=O)N([C@H](C)CO)C[C@@H](C)[C@@H](CN(C)C(=O)Nc1ccc(C(F)(F)F)cc1)O2
17	11	CC(C)CC#Cc1ccc([C@@H]2[C@H]3CN(C(=O)NC4CCCC4)CCCCN3[C@H]2CO)cc1
18	11	CN1C(=O)c2cc(NS(=O)(=O)c3ccc(F)cc3)ccc2OC[C@@H]2O[C@H](CC(=O)NCC(F)(F)F)CC[C@H]21
19	7	CC(C)NC(=O)N1CC[C@@H]2[C@H]1c1cc(-c3ccccc3)ccc1N(C)[C@H]2CO
20	-2	CCCNC(=O)N1C[C@H]2[C@@H](c3ccccc31)[C@@H](CO)N2C(=O)Nc1ccccc1
21	-1	Cc1ccc(S(=O)(=O)Nc2ccc3c(c2)CC(=O)N([C@H](C)CO)C[C@@H](C)[C@H](CN(C)Cc2ccncc2)O3)cc1
22	-8	Cc1cccc(S(=O)(=O)N2CC[C@H]3[C@@H](CO)N(C)c4ccc(Br)cc4[C@H]32)c1
23	-7	CC(=O)N1[C@H](CO)[C@@H](c2ccccc2)[C@H]1CN(CC(C)C)C(=O)c1ccccn1
24	2	COc1ccc(CN2C[C@@H](C)[C@@H](OC)CN(C)C(=O)c3cc(NC(=O)c4nc5ccccc5s4)ccc3OC[C@@H]2C)cc1
25	0	O=C(Nc1cccc(F)c1)N1C[C@@H]2[C@H](c3ccccc31)[C@@H](CO)N2C(=O)c1ccccn1
26	37	C[C@@H]1CN([C@H](C)CO)C(=O)c2cc(NC(=O)Cc3cn(C)c4ccccc34)ccc2O[C@@H]1CN(C)C
27	1	COC(=O)C[C@H]1CC[C@@H]2[C@H](COC[C@@H](O)CN2S(=O)(=O)c2ccccc2C)O1
28	2	C[C@@H]1CN([C@H](C)CO)C(=O)Cc2cc(NC(=O)CCCN(C)C)ccc2O[C@@H]1CN(C)S(=O)(=O)c1ccccc1
29	-2	C[C@@H]1CN([C@H](C)CO)C(=O)c2cc(NC(=O)CCC(F)(F)F)ccc2O[C@H]1CN(C)S(=O)(=O)c1cccs1
30	4	CN(C)C(=O)C[C@H]1CC[C@@H]2[C@H](COc3ccc(NC(=O)Nc4cccc(Cl)c4)cc3C(=O)N2C)O1

Continuation:
nr	Yeast UUG start	structure
31	-2	CC(C)NC(=O)N(C)C[C@@H]1Oc2c(NS(=O)(=O)c3ccccc3)cccc2C(=O)N([C@H](C)CO)C[C@@H]1C
32	-3	COC(=O)C[C@H]1CC[C@@H]2[C@@H](COc3ccc(NC(=O)Nc4cccc(C#N)c4)cc3C(=O)N2C)O1
33	13	CC(C)CC#Cc1ccc([C@H]2[C@@H](CO)N3CCCCN(C(=O)NC4CCCC4)C[C@@H]23)cc1
34	3	C[C@@H]1CN([C@@H](C)CO)C(=O)c2cc(NS(=O)(=O)c3ccc(Cl)cc3)ccc2O[C@H]1CN(C)Cc1ccc(C(=O)O)cc1
35	-13	O=C(NCCc1ccncc1)[C@H]1[C@H](CO)[C@H]2Cn3c(ccc(-c4ccccc4)c3=O)[C@@H]1N2
36	11	CC(C)NC(=O)N(C)C[C@H]1Oc2c(NC(=O)Nc3ccc(F)cc3)cccc2C(=O)N([C@H](C)CO)C[C@H]1C
37	-8	C[C@@H]1CN([C@H](C)CO)C(=O)c2cccc(NS(=O)(=O)c3ccc(Cl)cc3)c2O[C@H]1CN(C)C
38	12	COc1ccccc1C#Cc1ccc([C@H]2[C@H](CO)N3CCCCN(C(=O)C4CC4)C[C@@H]23)cc1
39	3	C[C@@H]1CN([C@H](C)CO)C(=O)c2cccc(NS(=O)(=O)c3cccs3)c2O[C@@H]1CN(C)Cc1ccc(-c2ccccc2)cc1
40	-1	C[C@H](CO)N1C[C@H](C)[C@H](CN(C)S(C)(=O)=O)Oc2c(NC(=O)c3cnccn3)cccc2C1=O
41	1	COc1ccc(NC(=O)N(C)C[C@H]2Oc3ccc(NS(=O)(=O)c4cn(C)cn4)cc3C(=O)N([C@H](C)CO)C[C@H]2C)cc1
42	-7	C[C@H]1CN([C@@H](C)CO)C(=O)c2cccc(NS(C)(=O)=O)c2O[C@@H]1CN(C)Cc1ccc(C(=O)O)cc1
43	-1	C[C@H](CO)N1C[C@H](C)[C@@H](CN(C)CC2CCCC2)Oc2ncc(C#CCc3ccccc3)cc2C1=O
44	-23	Cc1noc(C)c1NC(=O)N(C)C[C@H]1Oc2ccc(NC(=O)c3ccncc3)cc2C(=O)N([C@H](C)CO)C[C@H]1C
45	-1	CC(C)NC(=O)N1CCCCN2[C@@H](CO)[C@H](c3ccc(C#Cc4ccccc4)cc3)[C@@H]2C1

Part of the list above, with bars between the fields:
item | Compound | Yeast UUG start
42 | C[C@H]1CN([C@@H](C)CO)C(=O)c2cccc(NS(C)(=O)=O)c2O[C@@H]1CN(C)Cc1ccc(C(=O)O)cc1 | -7
43 | C[C@H](CO)N1C[C@H](C)[C@@H](CN(C)CC2CCCC2)Oc2ncc(C#CCc3ccccc3)cc2C1=O | -1

Rewritten as labelled records: part of the list above.
#13 C[C@@H]1CN([C@H](C)CO)C(=O)Cc2cc(NC(=O)CCN3CCOCC3)ccc2O[C@@H]1CN(C)C
  Yeast UUG start: 12

#14 COc1ccc(C#Cc2ccc3c(c2)[C@@H]2[C@@H](CCN2C(=O)C2CCCCC2)[C@H](CO)N3)cc1
  Yeast UUG start: -1

#15 CN(C)C(=O)c1cccc(-c2ccc3c(c2)[C@@H]2[C@@H](CCN2C(=O)c2cccc(F)c2)[C@H](CO)N3C)c1
  Yeast UUG start: 8

#16 Cc1noc(C)c1NC(=O)Nc1ccc2c(c1)C(=O)N([C@H](C)CO)C[C@@H](C)[C@@H](CN(C)C(=O)Nc1ccc(C(F)(F)F)cc1)O2
  Yeast UUG start: -25

Continuation:
nr	Yeast UUG start	structure
46	10	C[C@@H]1CN([C@H](C)CO)C(=O)c2cc(NC(=O)Nc3cccc4ccccc34)ccc2O[C@@H]1CN(C)S(=O)(=O)c1cn(C)cn1
47	-2	C[C@@H]1CN([C@H](C)CO)C(=O)Cc2cc(NC(=O)c3ccncc3)ccc2O[C@@H]1CN(C)S(=O)(=O)c1ccc(Cl)cc1
48	-5	O=C(Nc1ccccc1F)N1C[C@@H]2[C@H](c3ccccc31)[C@H](CO)N2C(=O)Cc1cccnc1
49	-6	Cc1noc(C)c1S(=O)(=O)N(C)C[C@@H]1Oc2c(NC(=O)c3nc4ccccc4s3)cccc2C(=O)N([C@H](C)CO)C[C@@H]1C
50	12	CN(C)CC#Cc1ccc([C@@H]2[C@H]3CN(C(=O)Nc4ccccc4F)CCCCN3[C@H]2CO)cc1
51	-9	COc1cccc(-c2ccc3c(c2)[C@H]2[C@H](CCN2C(=O)c2ccccn2)[C@H](CO)N3)c1
52	6	O=C(Nc1cccc(F)c1)N1C[C@@H]2[C@H](c3ccccc31)[C@H](CO)N2C(=O)C1CCOCC1
53	0	CN1CCN(C(=O)C[C@@H]2C[C@H]3c4cc(NC(=O)CC5CC5)ccc4O[C@H]3[C@H](CO)O2)CC1
54	12	COc1ccc(S(=O)(=O)Nc2cccc3c2O[C@@H](CN(C)Cc2ccncc2)[C@@H](C)CN([C@@H](C)CO)C3=O)cc1
55	-10	COc1ccc(C#Cc2ccc([C@@H]3[C@H]4CN(Cc5ccccc5F)CCCCN4[C@H]3CO)cc2)cc1
56	123*	CO[C@@H]1CN(C)C(=O)c2ccc(NC(=O)c3ccccc3F)cc2OC[C@H](C)N(C(C)=O)C[C@@H]1C
57	-1	CC(=O)N1[C@H](CO)[C@H](c2ccccc2)[C@@H]1CN(C)S(=O)(=O)c1ccccc1
58	0	O=S(=O)(c1cccc(F)c1)N1CC[C@@H]2[C@@H](CO)Nc3ccc(Br)cc3[C@@H]21
59	7	C[C@@H]1CN([C@@H](C)CO)C(=O)c2cc(NC(=O)Cc3cn(C)c4ccccc34)ccc2O[C@@H]1CN(C)Cc1ccc(Cl)c(Cl)c1
60	9	C[C@H]1CN([C@@H](C)CO)C(=O)c2cc(NC(=O)Nc3ccc(C(F)(F)F)cc3)ccc2O[C@H]1CN(C)Cc1ccncc1

(listing goes on)
nr	Yeast UUG start	structure
61	-3	O=C(Nc1ccc(F)cc1)N1CCCCN2[C@H](CO)[C@H](c3ccc(-c4ccccc4F)cc3)[C@H]2C1
62	-2	C[C@@H]1CN([C@H](C)CO)C(=O)c2cccc(NS(C)(=O)=O)c2O[C@@H]1CN(C)Cc1ccc(C(=O)O)cc1
63	-7	CN1CCN(C(=O)C[C@@H]2C[C@@H]3c4cc(NC(=O)Nc5ccc(F)cc5)ccc4O[C@@H]3[C@@H](CO)O2)CC1
64	-4	C[C@@H]1CN([C@H](C)CO)C(=O)c2cccc(NC(=O)c3ccncc3)c2O[C@@H]1CN(C)C
65	-4	CC(C)NC(=O)N(C)C[C@H]1Oc2ccc(NC(=O)CCC(F)(F)F)cc2CC(=O)N([C@@H](C)CO)C[C@@H]1C
66	16	Cc1ccc(S(=O)(=O)Nc2cccc3c2O[C@@H](CN(C)CC2CCCCC2)[C@H](C)CN([C@@H](C)CO)C3=O)cc1
67	-6	COc1ccc(S(=O)(=O)Nc2ccc3c(c2)C(=O)N([C@H](C)CO)C[C@@H](C)[C@@H](CN(C)C(=O)Nc2cccc4ccccc24)O3)cc1
68	11	COc1ccc(NC(=O)N2CCCCN3[C@H](CO)[C@H](c4ccc(C#Cc5ccccn5)cc4)[C@@H]3C2)cc1
69	-11	CN1C(=O)c2cc(NC(=O)c3cccc(F)c3)ccc2OC[C@H]2O[C@@H](CC(=O)N3CCc4ccccc4C3)CC[C@H]21
70	-12	COCC(=O)N(C[C@@H]1N[C@@H](CO)[C@@H]1c1ccc(C2=CCCC2)cc1)C(C)C
71	-11	COc1ccc(S(=O)(=O)N(C)C[C@@H]2Oc3ccc(NS(=O)(=O)c4ccc(Cl)cc4)cc3C(=O)N([C@H](C)CO)C[C@@H]2C)cc1
72	-2	CCC(=O)Nc1ccc2c(c1)C(=O)N(C)C[C@@H](OC)[C@H](C)CN(Cc1ccccc1C(=O)O)[C@H](C)CO2
73	8	COCC#Cc1ccc([C@H]2[C@H]3CN(C(=O)Nc4cc(F)ccc4F)CCCCN3[C@H]2CO)cc1
74	-3	COc1ccc(NC(=O)Nc2ccc3c(c2)C(=O)N([C@@H](C)CO)C[C@H](C)[C@H](CN(C)C(=O)Nc2ccc(C(F)(F)F)cc2)O3)cc1
75	13	O=C(C1CCCC1)N1CCCCN2[C@@H](CO)[C@@H](c3ccc(C#CC4CC4)cc3)[C@@H]2C1

Sorted by value in Yeast UUG start (largest number first): three of the compounds above
nr	Yeast UUG start	structure
30	4	CN(C)C(=O)C[C@H]1CC[C@@H]2[C@H](COc3ccc(NC(=O)Nc4cccc(Cl)c4)cc3C(=O)N2C)O1
62	-2	C[C@@H]1CN([C@H](C)CO)C(=O)c2cccc(NS(C)(=O)=O)c2O[C@@H]1CN(C)Cc1ccc(C(=O)O)cc1
16	-25	Cc1noc(C)c1NC(=O)Nc1ccc2c(c1)C(=O)N([C@H](C)CO)C[C@@H](C)[C@@H](CN(C)C(=O)Nc1ccc(C(F)(F)F)cc1)O2

Next section:
nr	Yeast UUG start	structure
76	-2	C[C@@H]1CN([C@@H](C)CO)C(=O)c2cc(NC(=O)Cn3cnnn3)ccc2O[C@H]1CN(C)Cc1ccncc1
77	-4	CCS(=O)(=O)Nc1ccc2c(c1)C(=O)N(C)C[C@H](OC)[C@H](C)CN(C(=O)CN(C)C)[C@@H](C)CO2
78	4	Cc1noc(C)c1S(=O)(=O)N(C)C[C@@H]1Oc2c(NC(=O)c3cnccn3)cccc2C(=O)N([C@H](C)CO)C[C@@H]1C
79	6	C[C@@H]1CN([C@H](C)CO)C(=O)Cc2cc(NS(=O)(=O)c3ccc(Cl)cc3)ccc2O[C@@H]1CN(C)Cc1ccncc1
